# Assay outcomes (PubChem)
# Ecoli growth = inhibitors of Escherichia coli growth. OD600, 23 h; stronger effect = lower value. OD600 absorbance (concentration not given with the values). 330,000 compounds, 0.21% hits;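 active = OD600 absorbance below the run mean of sample wells minus 3.6 SD, in any replicate, cut at about 0.56 in these data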;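 note: stock transfer was 300 nL into about 60 µL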
# UCH37 DUB inh = human UCH37 deubiquitinating enzyme inhibition; purified proteasome/UCH37, Ub-AMC cleavage fluorescence; inhibition, % (no concentration beside the values); 330,000 compounds, 0.33% hits;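 active = mean of two replicates above 20%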;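 note: 0% = compound-free wells with enzyme and 100% = wells lacking proteasome; stock transfer was 100 nL into about 20 µL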
# Target sequence (Q9Y5K5 whole entry, looked up): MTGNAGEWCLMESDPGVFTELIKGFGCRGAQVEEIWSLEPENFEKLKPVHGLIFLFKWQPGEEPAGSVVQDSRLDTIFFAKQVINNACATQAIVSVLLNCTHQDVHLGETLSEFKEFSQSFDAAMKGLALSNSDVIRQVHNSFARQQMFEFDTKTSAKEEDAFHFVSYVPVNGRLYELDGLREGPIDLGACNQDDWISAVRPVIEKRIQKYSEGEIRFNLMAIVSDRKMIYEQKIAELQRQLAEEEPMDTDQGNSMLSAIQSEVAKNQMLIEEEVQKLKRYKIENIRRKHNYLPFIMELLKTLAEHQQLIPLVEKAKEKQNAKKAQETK
#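 Material: human UCH37 enzyme supplied as purified proteasome complex / Amount: 0.15 nM proteasome as dispensed / Buffer or medium: pH 7.4 Tris-HCl (50 mM) with ovalbumin, ATP-MgCl2, DTT / Times: preincubation 30 min, reaction 25 min, room temperature / Technique: AMC fluorescence from Ub-AMC cleavage, excitation 355 nm, emission 460 nm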
# FGF22 binding = shifts melting point of recombinant human FGF22 | recombinant FGF22 thermal shift, SYPRO orange fluorescence; percent of sucrose octasulfate shift, DMSO zero | 340,000 compounds, 1.5% hits | calls only at 9.99 µM | Q9HCT0;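 active = melting point raised past a set limit in the mean and every replicate; inconclusive = no clear call; three in four hits are not shown here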
# Target sequence (Q9HCT0 whole entry, looked up): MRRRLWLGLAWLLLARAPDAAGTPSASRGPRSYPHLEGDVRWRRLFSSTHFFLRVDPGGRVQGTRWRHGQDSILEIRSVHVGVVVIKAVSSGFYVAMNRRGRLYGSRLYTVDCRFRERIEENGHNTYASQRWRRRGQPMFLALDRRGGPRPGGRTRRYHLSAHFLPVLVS
# RanGTP-Impb inh = inhibitors of RanGTP-importin-beta interaction, primary screen, biochemical, FRET, CFP-Ran, YFP-importin-beta, homogeneous. cell-free CFP-Ran/YFP-importin-beta FRET ratio. inhibition, % (no concentration beside the values). 300,000 compounds, 1.1% hits;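 active = most replicates above 15%; inconclusive = exactly half above 15%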;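 note: 0% = DMSO wells and 100% = Ran loaded with GDP instead of GTP; wells of about 40 µL received 100 nL stock; the first replicate is given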
# Vif A3G = inhibitors of Vif binding to APOBEC3G peptide, primary screen, biochemical, TR-FRET, GST-Vif 1-94, biotin-A3G peptide, dose response retest (AID 1117319); TR-FRET GST-Vif / biotin-A3G peptide binding; higher % means a stronger effect; test concentration not given here; strong numbers were not always called active; inhibition, %, or IC50 in µM where a hit was titrated; 260,000 compounds, 0.57% hits;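 active = above the screen mean plus three standard deviations and confirmed in dose response; inconclusive = results disagree or hit not tested in dose response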;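 note: Vif residues 1-94 fused to GST binding biotinylated APOBEC3G peptide 110-148; 0% = full assay without inhibitor and 100% = GST in place of GST-Vif; retest series ran down from 100 µM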
# MLL AF4-AF9 inh = blocks AF4 peptide binding to human AF9. inhibition, % at 10 µM. P42568. AlphaScreen, biotin-AF4 peptide binding to FLAG-AF9. 350,000 compounds, 0.47% hits;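 active = every replicate reaching a set inhibition limit, whatever the replicate mean, cut at about 25% in these data; inconclusive = mean inhibition reaches that limit but some replicates miss it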;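 note: 0% = plate neutral control median and 100% = total signal loss; the record names both 10 and 1 µM as test concentration; the first replicate is given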
# HNF4A DNA FP = change in binding of human HNF4 alpha to DNA; P41235; HNF4a-FITC DNA binding, fluorescence polarization, 1 h; activity change, % at 10 µM; 360,000 compounds, 0.3% hits; AID 1224865; in the data active = activity change above about 30%, passing the limit was not always enough;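 note: controls were the assay level and a saturating level of protein; the project sought stronger binding though the title names inhibitors; some compounds called inactive have numbers as strong as hits; positive values seem to mean higher polarization but the record does not say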
# Target sequence (P41235 whole entry, looked up): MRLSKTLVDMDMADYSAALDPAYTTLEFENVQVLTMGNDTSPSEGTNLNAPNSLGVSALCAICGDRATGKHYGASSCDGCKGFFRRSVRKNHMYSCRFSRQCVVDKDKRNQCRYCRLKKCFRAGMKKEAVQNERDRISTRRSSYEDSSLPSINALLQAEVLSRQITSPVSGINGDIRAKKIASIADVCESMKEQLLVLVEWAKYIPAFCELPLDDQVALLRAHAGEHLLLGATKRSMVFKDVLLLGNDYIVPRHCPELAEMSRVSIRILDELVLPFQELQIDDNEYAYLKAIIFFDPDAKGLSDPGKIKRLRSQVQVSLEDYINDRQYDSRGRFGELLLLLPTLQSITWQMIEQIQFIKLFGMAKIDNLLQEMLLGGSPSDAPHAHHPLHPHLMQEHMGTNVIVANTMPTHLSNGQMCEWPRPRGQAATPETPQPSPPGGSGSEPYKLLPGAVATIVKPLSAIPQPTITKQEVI
# An asterisk follows results filed as active; i = inactive; ? = inconclusive; . = no result given. The list is partial; count on the stated rates, not on these rows.
# Each structure is followed by: Ecoli growth	UCH37 DUB inh	FGF22 binding	RanGTP-Impb inh	Vif A3G	MLL AF4-AF9 inh	HNF4A DNA FP
- O=C(Nc1ccc(OC(F)(F)F)cc1)c1ccc2ccccc2n1
 : 0.7	-0.2	.	2.1	0%	-16	-1.5
- O=C(COc1ccc(Cl)cc1Cl)N1CCN(C(=O)c2ccco2)CC1
 : 0.67	3.2	i	6.5	.	-1.5	-2.4
- Cn1c(=O)n(Cc2ccco2)c(=N)c2c3c(sc21)CCC3
 : 0.7	-3.7	.	.	12%	.	7.5
- Cc1cc(Br)cn2c(Cc3cccc(F)c3)c(-c3ccccc3)nc12
 : .	.	i	.	.	-0.1	2.9
- CO/N=C/C(=N\Nc1ccc(C)cc1)C(=O)c1ccc(OC)cc1
 : .	.	.	-0.8	-2%	.	-0.3
- Cc1ccc(NC(=O)Cn2nnc3ccccc32)c(C)c1
 : 0.68	3.0	.	3.7	-1%	1.3	4.5
- Cc1cccc(NC(=S)NCc2ccc3c(c2)cc(C)n3C)c1C
 : 0.76	0.1	i	9.1	-50%	3.5	-1.2
- CCN(C(=O)COC(=O)CNS(=O)(=O)c1ccc(C)cc1)C1CCS(=O)(=O)C1 (stereo not drawn)
 : .	.	i	.	4%	0.0	-3.1
- COc1ccc(C(CNC(=O)c2oc3ccccc3c2C)N2CCCC2)cc1 (stereo not drawn)
 : 0.62	-1.2	i	.	1%	7.6	2.7
- Cc1ccc(NS(=O)(=O)c2c(C(=O)N3CCCCCC3)c(C)n(C)c2C)c(Cl)c1
 : 0.71	0.4	i	2.4	.	-11	2.7
- COc1ccc(OC)c(CCNC(=O)Cc2ccc(NC3=NC4CS(=O)(=O)CC4S3)cc2)c1 (stereo not drawn)
 : 0.78	4.9	i	0.1	.	-5.3	0.9
- C(=N\Nc1nc2ccccc2[nH]1)/c1ccncc1
 : .	.	i	1.6	19%	0.4	6.0
- CCCc1ccc(Oc2cc(NN3CCCCC3)c([N+](=O)[O-])cc2[N+](=O)[O-])cc1
 : 0.7	0.5	i	0.1	.	-3.2	-3.5
- COc1ccc(S(=O)(=O)Cc2ccc(C(=O)NCc3ccccn3)o2)cc1
 : 0.72	1.4	.	-0.5	1%	-1.6	-0.7
- O=c1[nH]n2c(=O)c3c([nH]c2c1N=Nc1cccc(Cl)c1)CCC3
 : 0.68	18	.	-2.9	1%	.	-15
- O=C(CC(C(=O)O)C1CCCO1)NCCc1ccc2c(c1)OCO2 (stereo not drawn)
 : 0.65	0.5	.	2.7	2%	.	1.3
- COc1ccc(/C=N/NC(=O)c2nc(-c3ccccc3)n(-c3ccccc3)n2)cc1
 : .	.	i	3.0	-12%	3.1	-2.5
- CCc1nnc(NC(=O)CCc2ccc(C)o2)s1
 : 0.65	0.4	.	1.2	6%	.	2.1
- COc1cccc(S(=O)(=O)Nc2noc3ccccc23)c1
 : 0.68	2.3	i	2.6	21%	0.4	1.6
- CN1c2ccccc2C(C)(C)C12CC(c1ccc(S(=O)(=O)N3CCCCC3)cc1)=NO2 (stereo not drawn)
 : 0.71	0.5	i	1.6	-53%	0.9	-1.0
- O=C(c1ccc(Cl)c(S(=O)(=O)NCc2ccccc2)c1)N1CCN(c2ccccn2)CC1
 : 0.67	4.7	i	2.0	0%	8.1	-1.7
- CCOC(=O)c1c(-c2cc(OC)c(OC)c(OC)c2)csc1N
 : .	.	i	.	-2%	-5.4	-0.8
- CCC(C)[C@H](NC(=O)N1CC(=O)Nc2ccccc21)C(=O)NC(C)CCc1ccccc1 (stereo partly drawn)
 : 0.65	1.1	i	-2.0	-1%	-0.3	-2.6
- COc1ccc(NC(=O)CC2SC3=NCCN3C2=O)cc1 (stereo not drawn)
 : 0.72	1.4	.	0.6	9%	-0.6	0.2
- Cc1cc2ccccn2c1C(C[N+](=O)[O-])c1ccc(N(C)C)cc1 (stereo not drawn)
 : 0.69	-4.3	.	-3.8	29%	.	2.5
- COc1ccc2nc(COC(=O)c3cccs3)c(C(C)=O)[n+]([O-])c2c1
 : 0.63	-0.1	i	-0.6	?	2.5	-2.2
- COc1cccc(C2NC(C)(C(=O)O)C3C(=O)N(C(C)C)C(=O)C23)c1O (stereo not drawn)
 : 0.75	7.1	i	2.5	-1%	-3.5	0.7
- CC(C)(C)C(=O)Cn1c(=O)n(CC2CCCO2)c(=O)c2ccccc21 (stereo not drawn)
 : 0.67	1.7	.	-2.6	1%	.	-2.3
- COc1cccc(CNC(=O)c2ccc(NC(=O)C3=CSCCO3)cc2)c1
 : 0.65	2.8	i	1.5	.	-3.2	1.6
- COc1ccc(S(=O)(=O)NCc2cccnc2)cc1NC(=O)c1ccccc1
 : 0.69	6.3	i	?	.	-3.7	0.6
- CCc1cc(C(=O)COc2ccc(F)cc2)c(O)cc1O
 : 0.65	0.2	i	2.6	10%	-1.2	-1.9
- Cc1csc(SCC(=O)N2CCN(S(=O)(=O)c3ccccc3)CC2)n1
 : 0.71	0.5	.	-4.1	-1%	.	0.6
- Cc1ccc(C(=O)N2N=C(c3ccc(Br)cc3)CC2c2ccccc2O)cc1 (stereo not drawn)
 : 0.68	-33	i	-4.3	.	-3.4	-1.3
- CCN1C(=O)N[C@@H](c2ccccc2)C(C(=O)OC)=C1C
 : .	6.1	.	3.4	.	.	1.3
- Nc1ccc(C(=O)OCC(=O)Nc2cc([N+](=O)[O-])ccc2F)cc1
 : 0.67	-1.0	i	0.0	12%	8.2	-2.1
- C/C(CC(=O)C(F)(F)F)=N\NC(=O)/C(C#N)=C/N(C)C
 : .	.	.	-3.3	.	-1.5	-7.1
- N#Cc1c(SCC(=O)N2CCOCC2)nsc1SCC(=O)N1CCOCC1
 : 0.71	-0.5	.	3.1	16%	.	2.1
- CCc1nnc(NC(=O)CSc2nnc(-c3ccncc3)n2Cc2ccccc2)s1
 : 0.7	0.6	.	-2.2	30%	.	.
- Cc1cc(C(=O)Nc2ccccc2)c(C)o1
 : 0.72	-1.0	.	-2.6	0%	.	-0.8
- Cc1ccc(C(=O)CSc2nc(-c3ccccc3)ccc2C#N)cc1
 : 0.68	0.8	.	-2.7	-53%	.	5.3
- COc1cc(OC)c(C=O)c(OC(=O)N2CCOCC2)c1
 : 0.68	3.3	i	4.5	.	-3.7	-1.2
- O=C(Cc1cccc2ccccc12)NN=Cc1ccc2c(c1)CCC2
 : .	.	i	.	-7%	-2.8	-7.3
- COCCCNc1nc2c(c(=O)[nH]c(=O)n2C)n1CC(O)COc1ccccc1C (stereo not drawn)
 : 0.75	-1.6	i	-0.2	-6%	-7.1	2.7
- N#Cc1ccc(C(=O)NCC(c2ccco2)N2CCCC2)cc1 (stereo not drawn)
 : 0.71	2.8	.	2.2	5%	.	1.8
- COc1ccccc1N1CCN(S(=O)(=O)c2ccc(Br)s2)CC1
 : 0.73	5.5	.	-1.4	5%	.	15
- Cn1c(NC(=O)c2ccc(F)c(F)c2)cc(=O)n(C)c1=O
 : 0.68	5.9	i	-2.6	1%	-11	2.8
- Cc1ccc(OCC(=O)Nc2nnc(S(=O)(=O)N3CCC(C)CC3)s2)cc1
 : .	.	i	-2.9	.	3.0	-15
- COC(=O)c1cc(S(=O)(=O)N(C)C2CCCCC2)c[nH]1
 : 0.7	4.6	i	3.7	.	-2.6	0.5
- CCOC(=O)C1=CCC2C(=O)N(CC)C(=O)C12 (stereo not drawn)
 : .	.	i	.	.	-2.4	0.0
- O=C(O)Cc1c(C(=O)O)nnn1-c1cccc(C(F)(F)F)c1
 : 0.66	2.3	i	3.4	-8%	1.3	-2.3
- CC(=O)Nc1nonc1-c1nc2ccccc2n1Cc1ccccn1
 : 0.71	-5.0	.	-3.5	-2%	.	2.9
- COc1cccc(CNC(=O)C2CCCN(S(=O)(=O)c3c(C)[nH]c(=O)[nH]c3=O)C2)c1 (stereo not drawn)
 : 0.67	5.6	.	4.3	-2%	.	1.1
- FC(F)(F)c1ccccc1CN1CCN(C2CCCCCC2)CC1
 : 0.66	-3.0	.	7.1	1%	.	-0.5
- Cc1onc(-c2ccccc2)c1C(=O)N(C)CC(=O)Nc1ccc(F)c(F)c1F
 : 0.7	4.4	i	.	.	-1.1	0.6
- Cc1cccc(C2=NN(c3ccccc3)[C@@H](C(=O)N3CCOC3=O)[C@@H]2C)c1
 : 0.69	-54	i	.	-2%	0.8	6.0
- CCOc1ccc(/C(O)=C2\C(=O)C(=O)N(c3ccccn3)C2c2ccccc2F)c(C)c1 (stereo not drawn)
 : .	.	i	.	.	-0.7	0.6
- O=C(COc1ccc(Cl)cc1)NCCNc1ccc([N+](=O)[O-])cc1
 : 0.64	6.4	i	2.6	-2%	-15	0.3
- CN(CC(=O)Nc1cccc(F)c1)CC(=O)NC(c1ccccc1)c1ccccc1
 : 0.7	0.7	i	.	.	2.8	-1.2
- CC1CN(C(=S)Nc2ccc(F)cc2F)CC(C)O1 (stereo not drawn)
 : 0.72	1.0	i	2.7	.	-1.1	-2.2
- C=CCN1C(=O)c2ccc(C(=O)NCCOc3ccccc3F)cc2C1=O
 : 0.7	5.1	i	-0.8	-2%	-1.8	-1.1

# More entries follow:
# Each structure is followed by: Ecoli growth	UCH37 DUB inh	FGF22 binding	RanGTP-Impb inh	Vif A3G	MLL AF4-AF9 inh	HNF4A DNA FP
- Clc1nnc(Cl)c2c1ncn2Cc1ccccc1
 : 0.68	4.8	i	4.4	.	1.1	2.6
- O=C1CC(c2ccco2)CC(O)=C1C=NCCN1CCN(C(=O)Nc2ccc(Cl)cc2)CC1 (stereo not drawn)
 : 0.69	3.7	.	4.9	-5%	.	1.5
- COc1ccc(C)cc1NC(=O)CNC(C)C(=O)Nc1ccc(C(C)=O)cc1 (stereo not drawn)
 : 0.63	0.9	i	3.2	0%	-0.2	2.3
- Cc1ccc(C(=O)NCC(c2ccco2)N2CCc3ccccc3C2)cc1C (stereo not drawn)
 : 0.67	0.0	i	0.1	0%	-0.3	-0.8
- CN1CCCC(C)(C(=O)Nc2ccc(-n3cccc3)cc2)C1 (stereo not drawn)
 : .	.	i	.	.	8.7	0.9
- Clc1nc(CN2CCCCC2)nc2sc3c(c12)CCCC3
 : 0.63	-5.0	i	1.2	-2%	9.8	8.3
- CCC(=O)OCn1nnc2ccccc2c1=O
 : 0.67	4.9	i	3.0	.	-1.6	1.7
- CN(Cc1nc(-c2cccc(Cl)c2)no1)C1CCOCC1
 : 0.69	4.9	i	3.8	26%	-12	0.3
- O=C(NCCN1CCOCC1)c1cc([N+](=O)[O-])ccc1Cl
 : 0.62	5.1	i	7.8	0%	2.6	-2.7
- COCCn1c(C(C)C)nc2oc3ccccc3c(=O)c2c1=O
 : 0.69	4.9	.	-1.7	5%	.	-0.6
- Cc1c(NC(=O)Nc2ccccc2[N+](=O)[O-])c(=O)n(-c2ccccc2)n1C
 : 0.67	1.5	i	6.8	-2%	-12	-1.3
- COc1ccc(C(=O)NCCCc2ccccc2)cc1OC
 : 0.69	0.7	i	?	.	0.6	-45
- O=C(O)c1cccc(NC(=S)N/N=C/c2cccc(O)c2)c1
 : .	.	.	0.2	15%	-4.4	1.1
- CC(C)(C)S(=O)N1Cc2cc(C(=O)NCC(F)(F)F)nc(-c3cccc(-c4cccc(F)c4)c3)c2[C@@H]1CCO (stereo partly drawn)
 : .	.	.	.	.	-4.0	7.7

# Random excerpt: two compounds from above
# Each structure is followed by: Ecoli growth	UCH37 DUB inh	FGF22 binding	RanGTP-Impb inh	Vif A3G	MLL AF4-AF9 inh	HNF4A DNA FP
- COCCn1c(C(C)C)nc2oc3ccccc3c(=O)c2c1=O
 : 0.69	4.9	.	-1.7	5%	.	-0.6
- CC(C)(C)S(=O)N1Cc2cc(C(=O)NCC(F)(F)F)nc(-c3cccc(-c4cccc(F)c4)c3)c2[C@@H]1CCO (stereo partly drawn)
 : .	.	.	.	.	-4.0	7.7
